Hedgehog – Drosophila hedgehog isoform A inhibitors, primary screen, biochemical, plate reader, single concentration (AID 588832); 8,000 tested, under 10 active; Biochemical plate reader assay, Hedgehog inhibition; stronger effect = higher value; inhibition, % at 30.3 µM; in the data active = inhibition from about 57%;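 note: 0% = neutral control wells and 100% = positive control wells; cholesterol-driven self-cleavage of fly hedgehog protein by fluorescence polarization; read one hour after cholesterol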
Active calls of the source: *. Not all compounds are listed. The share of hits here may be higher or lower than overall.

What do the screens show for `COc1ccc(-c2cc(=O)c3ccccc3o2)cc1`?
Hedgehog: 7

How did Cc1coc2c(C)c3oc(=O)c(CCC(=O)NCCCN4CCOCC4)c(C)c3cc12 do in these assays?
Hedgehog: 5

Results for CCN(Cc1ccccc1)C(=O)CCS(=O)(=O)c1ccc2c(c1)n(C)c(=O)c(=O)n2C ?
Hedgehog: 5

What do the screens show for `CSCC[C@H](NC(=O)[C@H](Cc1ccccc1)n1c(=O)[nH]c2ccccc2c1=O)C(=O)N1CCC(C(=O)O)CC1`?
Hedgehog: 2

How did Cc1ccc(NC(=O)C2CCCN2c2nn3c(=O)cc(C)nc3s2)cc1 (stereo unspecified) do in these assays?
Hedgehog: 5

What do the screens show for `Cc1onc(C(=O)N2CCN(Cc3ccccc3)CC2)c1[N+](=O)[O-]`?
Hedgehog: 10

How did COc1cc(NC2c3ccccc3C(=O)N2c2cc(C)ccn2)cc(OC)c1OC (stereo unspecified) do in these assays?
Hedgehog: 4

What do the screens show for `CCn1c(=O)c(=O)n(CC)c2cc(S(=O)(=O)N3CCc4ccccc43)ccc21`?
Hedgehog: 0

How did COc1ccc(-n2c(Cc3cc(=O)[nH]c(=O)[nH]3)nnc2SCC(=O)NC2CCCC2)cc1 do in these assays?
Hedgehog: 15

How did O=C(NC1CCCC1)C1CCCN(S(=O)(=O)c2cccc3cccnc23)C1 (stereo unspecified) do in these assays?
Hedgehog: -5

Results for O=C(CSc1nc(-c2ccco2)cc(C(F)(F)F)n1)NC1CCCC1 ?
Hedgehog: 13

How did CC(C)C(=O)NCCSc1c[nH]c2ccccc12 do in these assays?
Hedgehog: 6

How did COc1ccc(C2CC(c3ccc(Cl)cc3Cl)Nc3nc(N)nn32)cc1 (stereo unspecified) do in these assays?
Hedgehog: 33

Results for O=C1CN(C(=O)NCC(=O)N[C@@H](Cc2ccccc2)C(=O)O)c2ccccc2N1 ?
Hedgehog: 7

What do the screens show for `CCCn1cc(SCC(=O)Nc2ccc3c(c2)OCO3)c2ccccc21`?
Hedgehog: 4

What do the screens show for `Cc1cc(OC(C)C(=O)NC(Cc2c[nH]c3ccc(O)cc23)C(=O)O)c2c(C)cc(=O)oc2c1` (stereo unspecified)?
Hedgehog: 7

How did CCCCCCn1c(CN2CCN(C)CC2)nc2c1c(=O)n(C)c(=O)n2C do in these assays?
Hedgehog: 10

How did CN(CCCNC(=O)CCC(=O)N1CCOc2ccc(Cl)cc21)Cc1ccccc1 do in these assays?
Hedgehog: 5

What do the screens show for `Cc1c(Cc2ccccc2)c(=O)oc2cc(OC(C)C(=O)NCC3CCC(C(=O)O)CC3)c(Cl)cc12` (stereo unspecified)?
Hedgehog: 5

What do the screens show for `Cc1cccc(C2CC(c3ccc(F)cc3)Nc3nc(N)nn32)c1` (stereo unspecified)?
Hedgehog: 23

How did CC(C)c1ccc(C2c3[nH]c4ccccc4c3C[C@H]3C(=O)N(c4ccccc4C(=O)N4CCC(C(=O)O)CC4)C(=O)N23)cc1 (stereo partly specified) do in these assays?
Hedgehog: 3

What do the screens show for `CC(C)CN(CC(C)C)c1nnc(N)s1`?
Hedgehog: 12

What do the screens show for `Cc1ccc(-c2nc(NC(=O)CSc3cc(C)c4ccccc4n3)ns2)cc1`?
Hedgehog: 2

What do the screens show for `C[C@H](NC(=O)[C@H]1N2C(=O)c3ccccc3C2SC1(C)C)C(=O)N1CCC[C@H]1CO` (stereo partly specified)?
Hedgehog: 2

Results for CC(C)C[C@H](NC(=O)N1CCn2c1nc1ccccc12)C(=O)N[C@@H](C(=O)O)c1ccccc1 ?
Hedgehog: -3

Results for COc1cc(OC)c2cc(C(=O)N[C@H](C(=O)N3CCC[C@H]3C(=O)O)C(C)C)n(C)c2c1 ?
Hedgehog: 7

How did Cc1cc(=O)oc2cc(OCC(=O)NC(Cc3c[nH]c4ccc(O)cc34)C(=O)O)c(Cl)cc12 (stereo unspecified) do in these assays?
Hedgehog: 4

What do the screens show for `Cc1c(CCC(=O)NC2CC2)c(=O)oc2c(C)c(O)ccc12`?
Hedgehog: -4

Results for COc1ccc(-c2noc(N3CCC(C(=O)NCc4ccc(F)cc4)CC3)n2)cc1 ?
Hedgehog: 4

What do the screens show for `O=C(CS(=O)(=O)c1cn(Cc2ccc(F)cc2)c2ccccc12)N1CCOCC1`?
Hedgehog: 7

How did CC(NC(=O)[C@H](NC(=O)[C@@H]1Cc2ccccc2CN1)c1ccccc1)c1ccccc1 (stereo partly specified) do in these assays?
Hedgehog: 4

How did COc1cccc(/C=C2/SC(=S)N(CC(=O)Nc3nnc(C)s3)C2=O)c1 do in these assays?
Hedgehog: 4

What do the screens show for `CSc1nc(C)nc2c1c(=O)n(C)c(=O)n2C`?
Hedgehog: 3

Results for CCOc1ccc(C2CC(c3ccc(OC)cc3)n3ncnc3N2)cc1 (stereo unspecified) ?
Hedgehog: 10

How did Cc1ccc2c(c1)N(C(=O)CCC(=O)NC1CCCCCC1)CCO2 do in these assays?
Hedgehog: 4

Results for CCCNC(=O)c1cc(S(=O)(=O)N2CCc3ccccc32)cn1C ?
Hedgehog: 5

What do the screens show for `O=C(Cn1cnc2c(nnn2-c2ccccc2)c1=O)NCCc1ccccc1`?
Hedgehog: 10

What do the screens show for `Cc1ccc(NC(=O)c2cc(-c3cccc(O)c3)on2)cc1C`?
Hedgehog: 4

Results for COCOc1ccc(-c2cc(=O)c3c(OCOC)cc(OCOC)cc3o2)cc1 ?
Hedgehog: 12

How did CCOC(=O)c1c(NC(=O)C(C)S(=O)(=O)c2cn(CC)c3ccccc23)sc2c1CCCC2 (stereo unspecified) do in these assays?
Hedgehog: 29

How did CN1CC[C@@]2([C@@]34CCN(C)C3Nc3ccccc34)c3ccccc3NC12 (stereo partly specified) do in these assays?
Hedgehog: 5

Results for CC(C)c1nnc(NC(=O)Cc2cccs2)s1 ?
Hedgehog: 3

How did O=S(=O)(c1cnc[nH]1)N1CCN(c2ccccc2)CC1 do in these assays?
Hedgehog: 2

How did CCN(CC)c1ccc(NC(=O)CCc2nnc3ccc(N4CCCCC4)nn23)c(C)c1 do in these assays?
Hedgehog: 9

Results for Cc1c(C)c2c(OCC(=O)N[C@@H](C(=O)O)c3ccccc3)cc3c(c2oc1=O)CCC(C)(C)O3 ?
Hedgehog: 8

What do the screens show for `CC(C)[C@H](NC(=O)C1CCN(C(=O)[C@@H]2CCCN2)CC1)C(=O)NCc1ccc(F)cc1`?
Hedgehog: 9

What do the screens show for `O=C(COc1ccc2ccc(=O)oc2c1)N1CC[C@@]2(O)CCCC[C@H]2C1`?
Hedgehog: 4

What do the screens show for `Cc1ccc2oc(=O)c3cc(C(=O)NCc4ccco4)sc3c2c1`?
Hedgehog: 9

How did Cc1c(S(=O)(=O)Nc2cccc(Cl)c2)c(=O)n(C)c(=O)n1C do in these assays?
Hedgehog: 1

How did Cc1ccc(Cn2nnc3c(=O)n(Cc4ccccc4C)cnc32)cc1 do in these assays?
Hedgehog: 7

Results for CCOc1ccccc1NC(=O)Cn1cnc2c(nnn2-c2cccc(OC)c2)c1=O ?
Hedgehog: 4

Results for O=c1oc2ccccc2n1CCCOc1ccccc1 ?
Hedgehog: 5

How did CC1(C)C[C@H]2C3=CCC4[C@@]5(C)CC[C@H](O)[C@](C)(CO)C5CC[C@@]4(C)[C@]3(C)C[C@@H](O)[C@@]2(CO)[C@@H](O)[C@@H]1O (stereo partly specified) do in these assays?
Hedgehog: 3

Results for CCn1cc(S(=O)(=O)CC(=O)Nc2cccc(C)c2)c2ccccc21 ?
Hedgehog: 6

Results for O=C(NCCN1CCCCCC1)c1ccc(CS(=O)(=O)c2ccc(Br)cc2)o1 ?
Hedgehog: 11

What do the screens show for `CC(NC(=O)NC1CCCCC1)C(c1cccs1)N1CCN(C)CC1` (stereo unspecified)?
Hedgehog: 2

What do the screens show for `Cc1ccc(N(C)C(=O)c2ccc3c(Cl)c4c(nc3c2)CCC4)cc1C`?
Hedgehog: 7

What do the screens show for `Cc1nc(C(N)=O)nc2ccccc12`?
Hedgehog: 2

Results for Cc1c2cnn(CC(=O)NCCCN3CCCCC3)c(=O)c2c(C)n1Cc1ccccc1 ?
Hedgehog: 9

Results for CC(=O)c1ccc(NC(=O)C2CCCN2S(=O)(=O)c2ccc(C)cc2)cc1 (stereo unspecified) ?
Hedgehog: 15

Some of these compounds in order of formula weight, lowest first:
What do the screens show for `Cc1ccc(N(C)C(=O)c2ccc3c(Cl)c4c(nc3c2)CCC4)cc1C`?
Hedgehog: 7

Results for CC(=O)c1ccc(NC(=O)C2CCCN2S(=O)(=O)c2ccc(C)cc2)cc1 (stereo unspecified) ?
Hedgehog: 15

Results for Cc1c2cnn(CC(=O)NCCCN3CCCCC3)c(=O)c2c(C)n1Cc1ccccc1 ?
Hedgehog: 9

The list goes on.
What do the screens show for `O=c1cc(O)c2ccc(O)cc2o1`?
Hedgehog: 2

Results for O=C1CC(c2ccccc2)C(C(=O)Nc2ccccc2F)N1 (stereo unspecified) ?
Hedgehog: 0

What do the screens show for `Cc1ccc2oc3c(c(=O)c2c1)C(c1cccc(O)c1)N(c1ccccn1)C3=O` (stereo unspecified)?
Hedgehog: -10

Results for Cc1c(C)c2c(OCC(=O)NCc3ccncc3)cc3c(c2oc1=O)CCC(C)(C)O3 ?
Hedgehog: 5

How did CCOc1ccc(CCNC(=O)CCc2nnc3ccc(N4CCCCC4)nn23)cc1OCC do in these assays?
Hedgehog: 4

Results for CC#CCc1cc2ccccc2c(=O)o1 ?
Hedgehog: 11

What do the screens show for `Cn1c(SCC(=O)NCc2ccco2)nnc1-c1c[nH]c2ccccc12`?
Hedgehog: 1

Results for COc1ccc(-c2nc(CS(=O)(=O)CC(=O)NCc3ccccc3Br)c(C)o2)cc1 ?
Hedgehog: 5

What do the screens show for `Cc1ccc(C2N(c3ccc(F)cc3)C(=O)C3CCCN32)cc1` (stereo unspecified)?
Hedgehog: 11

Results for COc1ccc(N2CCN(C(=O)c3cc4c(s3)-c3ccccc3OC4)CC2)cc1 ?
Hedgehog: 7

How did Cc1ccc(C(=O)O)cc1[N+](=O)[O-] do in these assays?
Hedgehog: 5

What do the screens show for `CC1(C)CC2CC(C)(CN2C(=O)c2cc(-c3ccccc3O)on2)C1` (stereo unspecified)?
Hedgehog: 2

What do the screens show for `CC(C)(C)NC(=O)CSc1nnc(-c2ccccn2)n1-c1ccccc1`?
Hedgehog: 11

How did O=C(CSc1nnc(Cc2cc(=O)[nH]c(=O)[nH]2)n1-c1ccc(F)cc1)NC1CCCC1 do in these assays?
Hedgehog: 8

How did CN(Cc1ccccc1)S(=O)(=O)c1ccc2[nH]c(=O)ccc2c1 do in these assays?
Hedgehog: 0

How did O=c1[nH]snc1-c1c(Cl)cccc1Cl do in these assays?
Hedgehog: 3

How did CCCN1CCN(CCCNC(=O)Cn2cc3c(n2)CCCC3)CC1 do in these assays?
Hedgehog: 12

Results for CCOCCn1c(SCCc2ccccc2)nc2c1c(=O)[nH]c(=O)n2C ?
Hedgehog: 7

How did CCn1c(=O)c2cc(C(=O)N3CCOCC3)sc2c2ccccc21 do in these assays?
Hedgehog: -2

What do the screens show for `COc1ccc(CNC(=O)[C@H](C)N2C(=O)N3CCc4c([nH]c5ccc(OC)cc45)[C@@]3(C)C2=O)cc1`?
Hedgehog: 5

Results for C[C@]1(CC/C(=C/CO)CO)[C@H](C=O)CC[C@@]23COC(=O)C2=CCC[C@@H]31 ?
Hedgehog: 3

Results for COC(=O)c1ccc2c(c1)NC(=O)C1CCCN21 (stereo unspecified) ?
Hedgehog: -1

What do the screens show for `CC1CN(C(=O)CCC(=O)NCc2ccc(Cl)cc2)c2ccccc2O1` (stereo unspecified)?
Hedgehog: 5

How did COc1ccc(OC)c(CCNC(=O)c2cccc(NC3=NC4CS(=O)(=O)CC4S3)c2)c1 (stereo unspecified) do in these assays?
Hedgehog: 15

Results for COc1ccc(S(=O)(=O)N2CCN(C(=O)c3cc(-c4ccc(C)cc4)n[nH]3)CC2)cc1 ?
Hedgehog: 4

What do the screens show for `O=C(Cn1cnc2c(nnn2-c2ccccc2)c1=O)NCC1CCCO1` (stereo unspecified)?
Hedgehog: 11

How did Cn1cc(S(=O)(=O)N2CCN(c3ccc(F)cc3)CC2)c(=O)n(C)c1=O do in these assays?
Hedgehog: 3

What do the screens show for `O=C(c1cc(C2CC2)on1)N1CCN(c2ccc(F)cc2)CC1`?
Hedgehog: 8

How did CCCCCOC(=O)Cn1c(=O)oc2ccccc21 do in these assays?
Hedgehog: 6

Results for CC1Cc2nc(SCC(=O)N3CCOCC3)n(-c3ccccc3)c(=O)c2S1 (stereo unspecified) ?
Hedgehog: 5

How did Cc1cc(-c2nc3cccnc3s2)ccc1NS(=O)(=O)c1cccs1 do in these assays?
Hedgehog: 10

What do the screens show for `CCSc1nnc(Cn2c(=O)sc3ccccc32)n1C`?
Hedgehog: 21

What do the screens show for `CCN1CCSc2ccc(C(=O)NCc3ccccc3Br)cc21`?
Hedgehog: 0

Of the compounds above, these have a COOH group:
What do the screens show for `CSCC[C@H](NC(=O)[C@H](Cc1ccccc1)n1c(=O)[nH]c2ccccc2c1=O)C(=O)N1CCC(C(=O)O)CC1`?
Hedgehog: 2

Results for O=C1CN(C(=O)NCC(=O)N[C@@H](Cc2ccccc2)C(=O)O)c2ccccc2N1 ?
Hedgehog: 7

What do the screens show for `Cc1cc(OC(C)C(=O)NC(Cc2c[nH]c3ccc(O)cc23)C(=O)O)c2c(C)cc(=O)oc2c1` (stereo unspecified)?
Hedgehog: 7

What do the screens show for `Cc1c(Cc2ccccc2)c(=O)oc2cc(OC(C)C(=O)NCC3CCC(C(=O)O)CC3)c(Cl)cc12` (stereo unspecified)?
Hedgehog: 5

How did CC(C)c1ccc(C2c3[nH]c4ccccc4c3C[C@H]3C(=O)N(c4ccccc4C(=O)N4CCC(C(=O)O)CC4)C(=O)N23)cc1 (stereo partly specified) do in these assays?
Hedgehog: 3

Results for CC(C)C[C@H](NC(=O)N1CCn2c1nc1ccccc12)C(=O)N[C@@H](C(=O)O)c1ccccc1 ?
Hedgehog: -3

Results for COc1cc(OC)c2cc(C(=O)N[C@H](C(=O)N3CCC[C@H]3C(=O)O)C(C)C)n(C)c2c1 ?
Hedgehog: 7

How did Cc1cc(=O)oc2cc(OCC(=O)NC(Cc3c[nH]c4ccc(O)cc34)C(=O)O)c(Cl)cc12 (stereo unspecified) do in these assays?
Hedgehog: 4

Results for Cc1c(C)c2c(OCC(=O)N[C@@H](C(=O)O)c3ccccc3)cc3c(c2oc1=O)CCC(C)(C)O3 ?
Hedgehog: 8

How did Cc1ccc(C(=O)O)cc1[N+](=O)[O-] do in these assays?
Hedgehog: 5
